YjeE inh – inhibitors of E. coli YjeE (TsaE) | P0AF67 | purified YjeE, fluorescence polarisation of a bound ADP probe | Potency, µM | actives 0.05% (n = 71,000) | AID 605; active = well fitted falling curve; inconclusive = weaker or top-dose-only fall, or a rising curve; inactive = flat or poorly fitted curve;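 also: top concentration of the series not given in the record; excess ADP was the control for the full effect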
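Fluorescence polarization of a BODIPY Texas Red–ADP probe (2 uM) bound to purified YjeE (10 uM) was read after 15 min room-temperature incubation with compounds. Loss of polarization marks inhibitors; ADP serves as titrated control.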
PK Bst – alters activity of Bacillus stearothermophilus pyruvate kinase; partly purified Bacillus stearothermophilus pyruvate kinase, luminescence ATP production; ribose 5-phosphate activator present at AC10; Potency, µM; actives 1.2% (n = 51,000); in the data active means potency below about 11 µM; inconclusive means mostly about 12 µM to 25 µM; inactive means weaker than that;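 the screen sought inhibitors and activators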;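 also: potency is read from the fitted curve at half-maximal effect; scaled between full activation by ribose 5 phosphate and full inhibition by luteolin; about four in five hits inhibit and the cells do not say which; series up to 57 µM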
* = called active by the depositor; i = inactive; ? = inconclusive; . = no result given.

The line under a structure holds: YjeE inh, PK Bst
COC(=O)[C@@]1(Cc2ccc(OC)cc2)[C@H]2c3cc(C(=O)N4CCCC4)n(CCc4ccc(O)c(OC)c4)c3C[C@H]2CN1C(=O)c1ccccc1
→ i, .
COc1ccc(-c2csc(Cc3nnc(N4CCOCC4)n3-c3ccccc3)n2)cc1
→ i, >57
CCCC[C@@H]1C[C@H]1C(NC(=O)Cc1ccccc1)c1ccc(-c2ccccc2)cc1 (stereo partly drawn)
→ i, .
CC(C(=O)Oc1ccc2c(c1)OCO2)N1C(=O)c2ccccc2C1=O (stereo not drawn)
→ i, >57
COc1ccc(CC(=O)Nc2c3c(nn2-c2cccc(Cl)c2)CS(=O)C3)cc1 (stereo not drawn)
→ i, >57
C[N+]1(CCCC[N+]2(C)CCCCCCC2)CCCCCCC1
→ i, .
CCOC(=O)c1sc(NC(=O)CSc2nnnn2-c2ccc(C)cc2)c(C(=O)OCC)c1C
→ i, >57
Cn1c(C(=O)NCCN2CCN(c3ccccc3F)CC2)cc2c(=O)n(C)c3ccccc3c21
→ i, .
Cc1sc2nnn(CC(=O)N3CCN(C(=O)c4ccco4)CC3)c(=O)c2c1C
→ i, i
Cc1nn2c(NCCCN3CCOCC3)c3c(nc2c1-c1ccccc1)CCC3
→ i, >57
COc1ccc(C(=O)Nc2cc(C)on2)cc1
→ i, .
CCOc1ccc(-c2csc(NC(=O)C3CCCO3)n2)cc1 (stereo not drawn)
→ i, ?
CCCC(=O)Nc1cccc(NC(=O)CN2CCN(c3ccccc3OC)CC2)c1
→ i, >57
O=C(Cn1cnc2c(nnn2-c2ccc(F)cc2)c1=O)N1CCCc2ccccc21
→ i, >57
O=C(NCC(c1cccnc1)N1CCOCC1)c1ccco1 (stereo not drawn)
→ i, >57
CN(C)c1cc2c(Nc3ccc4c(cnn4Cc4ccccc4)c3)ncnc2cn1
→ i, .
Clc1ccc([C@H](Cn2ccnc2)OCc2csc3c(Cl)cccc23)c(Cl)c1
→ i, .
c1ccc(OCc2nc3ccccc3s2)cc1
→ i, i
COc1ccc(C(NC(=O)CNC(C)=O)C(=O)Nc2ccc3c(c2)OCCO3)cc1 (stereo not drawn)
→ i, >57
Cc1c(C(=O)NCc2ccc3c(c2)OCO3)oc2ccc(S(=O)(=O)N3CCC(C)CC3)cc12
→ i, >57
CCOc1cc2[nH]c(=O)n(CCCCC(=O)NC3CCCCCC3)c(=O)c2cc1OCC
→ i, >57
O=C(CCS(=O)(=O)c1cccc2nsnc12)N1CC(=O)N(CCc2ccccc2)C(=O)C1
→ i, >11
Cn1c(-c2c(N)n(C3CCCC3)c3nc4ccccc4nc23)nc2ccccc21
→ i, >57
NCCC[C@@](N)(C(=O)O)C(F)F
→ i, .
COc1ccc(CNn2c(C)nc3ccccc3c2=O)cc1
→ i, .
CCOC(=O)CCCNC(=O)CCNC(=O)c1ccc(OC(C)C)cc1
→ i, .
CS(C)(=O)=NS(=O)(=O)c1ccc(Cl)cc1
→ i, i
COc1ccc2cc(CN(Cc3ccco3)Cc3nnnn3C3CCCCC3)c(=O)[nH]c2c1
→ i, >57
COc1ccc(C)cc1NC(=O)CN1CCN(c2ccccc2F)CC1
→ i, >57
O=C1c2oc3ccccc3c(=O)c2C(c2cccnc2)N1Cc1ccco1 (stereo not drawn)
→ i, >57
Cn1c(=O)[nH]c(=O)c2c1nc(Br)n2Cc1ccccc1F
→ i, >57
Cc1c(C(=O)O)oc2ccc(S(=O)(=O)N(CC(C)C)CC(C)C)cc12
→ i, >57
CCOC(=O)N1CCN(Cc2oc(CO)cc(=O)c2O)CC1
→ i, >57
CNC(=O)CC(C(=O)O)c1ccc(OCC(C)C)cc1 (stereo not drawn)
→ i, >57
CN1CCN(c2ncc3nc(-c4cccc(C#N)c4)c(=O)n(C[C@H]4CCCO4)c3n2)CC1
→ i, .
CCc1nnc(NC(=O)C(NS(=O)(=O)c2ccc3c(c2)OCCO3)C(C)C)s1 (stereo not drawn)
→ i, >57
Cc1ccc(O)c(-c2cc(-c3ccccc3C)[nH]n2)c1
→ i, .
O=C(Nc1ccccc1)c1ccc(S(=O)(=O)N2CCCCC2)cc1
→ i, .
O=C(c1cccc(F)c1)n1nnc2ccccc21
→ i, >57
CCCn1c(=O)c2ccccc2n2c(SCC(=O)NCc3cccs3)nnc12
→ i, .
COc1ccc2c(c1OC)C(=O)N(c1cccc(C)c1)C2
→ i, ?
O=C(CCS(=O)(=O)c1cccs1)N1CCN(c2ccc(F)cc2)CC1
→ i, >57
COc1cccc(-c2nnc(SCC(=O)N3CCCC3=O)n2-c2ccccc2)c1
→ i, >57
CCn1c(SCC(=O)Nc2cc(C)on2)nc2c1c(=O)n(C)c(=O)n2C
→ i, >57
O=C(NCc1ccc2c(c1)OCO2)c1cc(-c2ccccc2)on1
→ i, >57
CC(C)(C)NC(=O)C1CCN(C(=O)c2ccc(Br)cc2)CC1
→ i, .
COc1ccc(Oc2ncc3nc(-c4ccc(OC)cc4)c(=O)n(CCC#N)c3n2)cc1
→ i, .
COc1ccc(C[C@H](C)NC[C@@H](O)c2ccc(O)c(NC=O)c2)cc1
→ i, .
O=C(O)CSCNC(=O)CC12CC3CC(CC(C3)C1)C2
→ i, >57
CCOC(=O)N1CCC(NC(=O)c2cc(C(=O)NCc3cccc(Cl)c3)ccc2CO)CC1
→ i, >57

Further entries follow:
The line under a structure holds: YjeE inh, PK Bst
CC(=O)Nc1ccc(OCC(O)CN2CCN(c3ccc(C)c(Cl)c3)CC2)cc1 (stereo not drawn)
→ i, >57
O=S(=O)(c1ccccc1)N1CCC[C@@]2(CCN(c3ncccn3)C2)C1
→ i, .
COCCn1c(=O)c(-c2ccccc2)nc2cnc(Oc3ccccc3)nc21
→ i, .
O=c1c(-c2ccccc2)nc2cnc(N3CCOCC3)nc2n1Cc1ccc(F)cc1
→ i, .
O=c1c(-c2ccc(Cl)cc2)nc2cnc(Oc3ccccc3)nc2n1C1CC1
→ i, .
CCCCP(=O)(c1ccccn1)c1ccccn1
→ i, >57
COc1ccc(OC)c(C(=O)CSc2nnc(-c3cccnc3)n2C)c1
→ i, >57
CCOC(=O)C1CCCN(c2c(N3CCc4ccccc4C3)c(=O)c2=O)C1 (stereo not drawn)
→ i, .
CC(C)(CNS(=O)(=O)c1ccc(Cl)cc1)N1CCCCC1
→ i, >57
CNC(=O)c1ccc2nc(NC(C)=O)sc2c1
→ i, >57
O=C(NCCc1ccc(F)cc1)N1CCOCC1
→ i, >57
COc1ccc(OC)c(Nc2cc(C(=O)NCCCN3CCOCC3)c3ccccc3n2)c1
→ i, >57
CCOc1ccccc1NC(=O)Cn1nnc(C(=O)Nc2ccc(C)cc2)c1N
→ i, >57
CC(C)c1[nH]c(=O)c(C#N)c2c1CSC(C)(C)C2
→ ., >11
Cc1nc2cc(N3CCOCC3)c(NC(=O)C3CC3)cc2c(=O)n1Cc1ccccc1
→ i, >57
Cc1cc(NC(=O)Cn2nc(-c3ccccc3F)ccc2=O)ccc1-n1cnnn1
→ i, >57
COCCn1c(=O)c(-c2ccc(OC)cc2)nc2cnc(OC)nc21
→ i, .
Cc1ccc(-c2noc(CN(C(=O)CCN3C(=O)c4ccccc4C3=O)C(C)C)n2)cc1
→ i, >57
Cc1nc(SCC(=O)N2CCN(C(=O)c3ccco3)CC2)c2c(C)c(C)sc2n1
→ i, >57
CC(=O)N1CCc2c(sc(NC(=O)c3ccc4c(c3)OCCO4)c2C#N)C1
→ i, .
CC(=O)c1c(C(C)=O)c(C)n(NC(=O)c2ccncc2)c1C
→ ., >11
CN1CCN(c2nc(-c3cccnc3)nc3ccccc23)CC1
→ i, .
CS(=O)(=O)N1CCC[C@@]2(CCN(c3ccccn3)C2)C1
→ i, .
COc1ccc(S(=O)(=O)N(C)CC(=O)N2CCCCC2)cc1Cl
→ i, >57
Cc1cc(=O)[nH]c(SCC(=O)NCCOc2ccccc2)n1
→ i, .
CCOC(=O)c1sc(NC(=O)C(CC)Sc2nccn2C)nc1C (stereo not drawn)
→ i, .
O=C(NCCC1=CCCCC1)c1ccc2c(=O)n3c(nc2c1)CCCCC3
→ i, .
CS(=O)(=O)c1ccc2nc(NC(=O)c3ccco3)sc2c1
→ i, .
CCN(CC)S(=O)(=O)c1ccc2oc(C(=O)NCc3ccc(F)cc3)c(C)c2c1
→ i, >57
Cc1ccccc1-c1cc(NCCN2CCOCC2)ncn1
→ i, .
COc1ccccc1-c1nc(N2CCN(C)CC2)c2ccccc2n1
→ i, .
Cn1c(C(=O)N2CCC(C(N)=O)CC2)cc2c(=O)n(C)c3ccccc3c21
→ i, .
CCOP(=O)(c1c(F)c(F)c(F)c(F)c1F)C(O)c1ccccc1 (stereo not drawn)
→ i, >57
CCOCCCNS(=O)(=O)c1ccc(NC(=O)c2ccccc2)cc1
→ i, >57
O=C(O)/C=C\C(=O)N1Cc2cc3ccccc3nc2C1
→ i, .
COc1ccc(N2CCN(C(=O)c3ccc4c(c3)OCO4)CC2)cc1
→ i, .
CCOc1ccc(OCc2cccc(C(=O)N3CCCC3)c2)cc1
→ i, ?
CC1CCCCN1C(=O)CSc1nnc(-c2c[nH]c3ccccc23)o1 (stereo not drawn)
→ i, .
Cc1ccc(Cn2c(SCC(=O)Nc3cc(C)on3)nc3ccccc3c2=O)cc1
→ i, >57
Cc1cn2c(-c3cccnc3)nnc2s1
→ i, >57

Structures listed so far that have a halogen:
The line under a structure holds: YjeE inh, PK Bst
COc1ccc(CC(=O)Nc2c3c(nn2-c2cccc(Cl)c2)CS(=O)C3)cc1 (stereo not drawn)
→ i, >57
Cn1c(C(=O)NCCN2CCN(c3ccccc3F)CC2)cc2c(=O)n(C)c3ccccc3c21
→ i, .
O=C(Cn1cnc2c(nnn2-c2ccc(F)cc2)c1=O)N1CCCc2ccccc21
→ i, >57
Clc1ccc([C@H](Cn2ccnc2)OCc2csc3c(Cl)cccc23)c(Cl)c1
→ i, .
NCCC[C@@](N)(C(=O)O)C(F)F
→ i, .
CS(C)(=O)=NS(=O)(=O)c1ccc(Cl)cc1
→ i, i
COc1ccc(C)cc1NC(=O)CN1CCN(c2ccccc2F)CC1
→ i, >57
Cn1c(=O)[nH]c(=O)c2c1nc(Br)n2Cc1ccccc1F
→ i, >57
O=C(c1cccc(F)c1)n1nnc2ccccc21
→ i, >57
O=C(CCS(=O)(=O)c1cccs1)N1CCN(c2ccc(F)cc2)CC1
→ i, >57
CC(C)(C)NC(=O)C1CCN(C(=O)c2ccc(Br)cc2)CC1
→ i, .
CCOC(=O)N1CCC(NC(=O)c2cc(C(=O)NCc3cccc(Cl)c3)ccc2CO)CC1
→ i, >57
CC(=O)Nc1ccc(OCC(O)CN2CCN(c3ccc(C)c(Cl)c3)CC2)cc1 (stereo not drawn)
→ i, >57
O=c1c(-c2ccccc2)nc2cnc(N3CCOCC3)nc2n1Cc1ccc(F)cc1
→ i, .
O=c1c(-c2ccc(Cl)cc2)nc2cnc(Oc3ccccc3)nc2n1C1CC1
→ i, .
CC(C)(CNS(=O)(=O)c1ccc(Cl)cc1)N1CCCCC1
→ i, >57
O=C(NCCc1ccc(F)cc1)N1CCOCC1
→ i, >57
Cc1cc(NC(=O)Cn2nc(-c3ccccc3F)ccc2=O)ccc1-n1cnnn1
→ i, >57
COc1ccc(S(=O)(=O)N(C)CC(=O)N2CCCCC2)cc1Cl
→ i, >57
CCN(CC)S(=O)(=O)c1ccc2oc(C(=O)NCc3ccc(F)cc3)c(C)c2c1
→ i, >57
CCOP(=O)(c1c(F)c(F)c(F)c(F)c1F)C(O)c1ccccc1 (stereo not drawn)
→ i, >57

High-throughput results (PubChem)

This is a subset; rates above refer to the full screens.
